Source: PubChem (Broad Institute)
Ecoli rRNA inh – inhibits bacterial ribosomal RNA function over humanized ribosomes. E. coli WT GFP vs humanized-ribosome RFP mutants, fluorescence, 24 h; active compounds read low; DMSO median 0, no signal -100. GFP signal change (wild-type ribosome), % (no concentration beside the values). 350,000 compounds, 1.6% hits;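 active = significant combined selectivity score with lowered wild-type GFP, culture density cut under 30%, mutant RFP and density less affected; inactive = any of these conditions unmet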; also: one replicate is shown; some compounds called inactive have numbers as strong as hits
Beta apoptosis – beta cell apoptosis inhibition | INS-1E cytokine-induced death, ATP luminescence, 48 h; percent of positive-control rescue, neutral wells zero | protection from apoptosis, % (concentration not given with the values) | 300,000 compounds, 0.8% hits | AID 435005;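 active = all replicates at 75% or more, or half of them and the mean; inconclusive = half reach 75% but not the mean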;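 also: 0% = cytokine-treated negative control wells and 100% = positive control rescue; higher means more ATP so stronger rescue from cytokine killing; wells of about 40 µL received 100 nL stock; the first replicate is given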
Calb FLC – affects C. albicans growth with fluconazole | C. albicans CaCi-2 (fluconazole-resistant clinical isolate) + fluconazole, Alamar Blue growth, 48 h | growth inhibition, % (no concentration beside the values) | 300,000 compounds, 0.57% hits;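 active = most replicates above 75%; inconclusive = exactly half above 75%; inactive = most below 75%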;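 also: all wells also contain fluconazole at 8 µg/ml as a sub-toxic cotreatment; 0% = median of DMSO wells and 100% = median of geldanamycin control wells; wells of about 8 µL received 7.5 nL stock; the first replicate is given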
T cruzi inh – blocks replication of Trypanosoma cruzi; AID 1885; 300,000 compounds, 1.4% hits; T. cruzi beta-gal in NIH3T3, luminescence, 90 h; inhibition, % (concentration not given with the values);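 active = mean inhibition across valid replicates above about 55%, limit read from the data; inconclusive = mean below that limit but half or more replicates reach it; inactive = mean below it, under half of replicates reach it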;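 also: signal also drops with host cell toxicity which is not excluded here; 0% = plate median of DMSO wells and 100% = zero luminescence signal; higher percent means less beta-gal luminescence so fewer parasites; stock transfer was 50 nL into about 50 µL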
FGF22 binding – FGF22 (human) thermal shift binding; Q9HCT0; recombinant FGF22 thermal shift, SYPRO orange fluorescence; percent of sucrose octasulfate shift, DMSO zero; calls only at 9.99 µM; 340,000 compounds, 1.5% hits; AID 651658;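 active = melting point raised past a set limit in the mean and every replicate; inconclusive = no clear call; three in four hits are not shown here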
Target sequence (Q9HCT0 whole entry, looked up): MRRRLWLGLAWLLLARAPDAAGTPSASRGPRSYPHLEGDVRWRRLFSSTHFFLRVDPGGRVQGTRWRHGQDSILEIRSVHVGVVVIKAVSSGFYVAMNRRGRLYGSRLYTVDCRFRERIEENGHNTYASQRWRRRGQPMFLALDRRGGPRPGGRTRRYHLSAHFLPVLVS
MLL AF4-AF9 inh – MLL-AF4/AF9 protein interaction inhibition; AlphaScreen, biotin-AF4 peptide binding to FLAG-AF9; AID 651704; inhibition, % at 10 µM; 350,000 compounds, 0.47% hits; P42568;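 active = every replicate reaching a set inhibition limit, whatever the replicate mean, cut at about 25% in these data; inconclusive = mean inhibition reaches that limit but some replicates miss it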;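 also: 0% = plate neutral control median and 100% = total signal loss; the record names both 10 and 1 µM as test concentration; the first replicate is given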
Target sequence (P42568 whole entry, looked up): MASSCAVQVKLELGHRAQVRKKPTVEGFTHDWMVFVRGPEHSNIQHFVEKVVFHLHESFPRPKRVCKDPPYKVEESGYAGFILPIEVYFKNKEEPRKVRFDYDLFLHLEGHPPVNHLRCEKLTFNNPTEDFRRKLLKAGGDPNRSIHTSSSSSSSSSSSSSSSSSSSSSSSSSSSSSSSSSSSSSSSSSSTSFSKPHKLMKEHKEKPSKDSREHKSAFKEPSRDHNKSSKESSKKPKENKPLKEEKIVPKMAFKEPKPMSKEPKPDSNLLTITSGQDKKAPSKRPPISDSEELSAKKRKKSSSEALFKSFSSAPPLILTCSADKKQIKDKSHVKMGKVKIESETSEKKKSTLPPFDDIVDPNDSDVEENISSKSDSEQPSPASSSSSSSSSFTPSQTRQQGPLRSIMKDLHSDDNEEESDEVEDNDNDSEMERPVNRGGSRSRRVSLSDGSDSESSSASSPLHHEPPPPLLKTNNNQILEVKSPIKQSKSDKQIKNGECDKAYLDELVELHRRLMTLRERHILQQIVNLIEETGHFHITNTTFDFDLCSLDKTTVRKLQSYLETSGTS
ALR H2O2 inh – human ALR oxidase inhibition via reduced H2O2; inhibition, % (no concentration beside the values); purified ALR, DTT oxidation, H2O2 HRP-luminol luminescence; 290,000 compounds, 3.8% hits;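 active = mean and each replicate at 75% or more; inconclusive = only one of the two met; inactive = neither met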;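 also: stock transfer was 7.5 nL into about 7.5 µL; 0% = neutral wells and 100% = wells with inactivated enzyme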
Target sequence (P55789 whole entry, looked up): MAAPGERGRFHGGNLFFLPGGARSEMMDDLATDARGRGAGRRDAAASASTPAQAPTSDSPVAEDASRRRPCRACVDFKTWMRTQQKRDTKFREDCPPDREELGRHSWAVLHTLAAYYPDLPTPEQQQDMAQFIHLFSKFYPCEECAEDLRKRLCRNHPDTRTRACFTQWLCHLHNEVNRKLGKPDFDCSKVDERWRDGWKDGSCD
RanGTP-Impb inh – inhibitors of RanGTP-importin-beta interaction, primary screen, biochemical, FRET, CFP-Ran, YFP-importin-beta, homogeneous. cell-free CFP-Ran/YFP-importin-beta FRET ratio. inhibition, % (concentration not given with the values). 300,000 compounds, 1.1% hits;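 active = most replicates above 15%; inconclusive = exactly half above 15%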;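 also: 0% = DMSO wells and 100% = Ran loaded with GDP instead of GTP; wells of about 40 µL received 100 nL stock; the first replicate is given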
Ecoli rRNA inh OD600 – also measured in Ecoli rRNA inh; calls as there; OD600 change, %; measured here: OD600 growth;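 optical density of the mix in the first replicate; 0 = DMSO median and -100 = no signal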
Ecoli rRNA inh RFP – further read-out of Ecoli rRNA inh, marked with its call; RFP signal change, %; measured here: RFP humanized mutant strains;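 first replicate; 0 = DMSO median and -100 = no signal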
The depositor's hits bear a star. This is a subset, so the mix of outcomes need not match the whole.

Results for O=C(Nc1ccc2c(c1)OCO2)C1CCN(Cc2cnn(-c3ccccc3)c2-n2cccc2)CC1 ?
Beta apoptosis: 1; Calb FLC: inconclusive; T cruzi inh: 44; ALR H2O2 inh: -28; RanGTP-Impb inh: -0.3

How did CN(CC(=O)NC1CCCc2ccccc21)S(=O)(=O)c1cccs1 (stereo not drawn) do in these assays?
Ecoli rRNA inh: -4; Beta apoptosis: 4; Calb FLC: 16; T cruzi inh: -7; FGF22 binding: inactive; MLL AF4-AF9 inh: 3.8; ALR H2O2 inh: -56; RanGTP-Impb inh: -0.1; Ecoli rRNA inh OD600: -17; Ecoli rRNA inh RFP: -7.4

How did O=C(O)c1cc(NC(=O)c2ccc(Cl)c([N+](=O)[O-])c2)cc(C(=O)O)c1 do in these assays?
Ecoli rRNA inh: 16; Calb FLC: 1; T cruzi inh: -6; FGF22 binding: inactive; MLL AF4-AF9 inh: 0.4; ALR H2O2 inh: -8; RanGTP-Impb inh: 2.0; Ecoli rRNA inh OD600: 13; Ecoli rRNA inh RFP: 5.3

How did Oc1ccc2ccccc2c1C=Nc1ccccc1 do in these assays?
Ecoli rRNA inh: 7; Beta apoptosis: -11; T cruzi inh: -6; FGF22 binding: inactive; MLL AF4-AF9 inh: -1.8; ALR H2O2 inh: -184; RanGTP-Impb inh: -2.8; Ecoli rRNA inh OD600: 8; Ecoli rRNA inh RFP: -0.4

What do the screens show for `Cc1ccc(S(=O)(=O)N2[C@@H](c3cccc(Cl)c3)C(C(=O)O)=CC[C@H]2c2ccc3c(c2)OCO3)cc1`?
Ecoli rRNA inh: -36; Beta apoptosis: 4; FGF22 binding: inactive; MLL AF4-AF9 inh: -0.4; ALR H2O2 inh: -8; Ecoli rRNA inh OD600: -51; Ecoli rRNA inh RFP: -14

How did CCN(Cc1ccccc1)S(=O)(=O)c1ccc(C(=O)Nc2nnc(C3CC3)o2)cc1 do in these assays?
Ecoli rRNA inh: -52; Beta apoptosis: 7; Calb FLC: 0; T cruzi inh: 49; FGF22 binding: inactive; MLL AF4-AF9 inh: 6.4; ALR H2O2 inh: 12; RanGTP-Impb inh: -0.9; Ecoli rRNA inh OD600: -71; Ecoli rRNA inh RFP: -16

Results for Cc1cccc(N(CC(=O)NC2CCCCC2)C(=O)c2ccc(C)s2)c1 ?
Beta apoptosis: 2; Calb FLC: -11; T cruzi inh: 6; ALR H2O2 inh: -5; RanGTP-Impb inh: 2.5

How did O=C(CN1CCCCC1)Nc1ccc(NC(=O)c2ccccc2Cl)cc1Cl do in these assays?
Ecoli rRNA inh: -32; Beta apoptosis: 11; Calb FLC: 40; T cruzi inh: 21; FGF22 binding: inactive; MLL AF4-AF9 inh: 9.4; ALR H2O2 inh: -6; RanGTP-Impb inh: 6.4; Ecoli rRNA inh OD600: -29; Ecoli rRNA inh RFP: -4.3

What do the screens show for `O=C(Cn1nc(-c2ccc(Cl)cc2)ccc1=O)NCC1CCCO1` (stereo not drawn)?
Ecoli rRNA inh: 0; Beta apoptosis: -3; Calb FLC: -3; T cruzi inh: -16; FGF22 binding: inactive; MLL AF4-AF9 inh: -5.7; RanGTP-Impb inh: 1.1; Ecoli rRNA inh OD600: 11; Ecoli rRNA inh RFP: 1.2

Results for Cn1c(-c2cccc(Br)c2)n[nH]c1=O ?
Ecoli rRNA inh: 7; Beta apoptosis: -1; Calb FLC: -15; T cruzi inh: 0; FGF22 binding: inactive; MLL AF4-AF9 inh: -0.8; ALR H2O2 inh: -11; RanGTP-Impb inh: -0.7; Ecoli rRNA inh OD600: 9; Ecoli rRNA inh RFP: 5.1

Results for Cc1ccc(-n2c(SCC(=O)N3CCCC3)nc3c(c2=O)SCC3)cc1 ?
Beta apoptosis: -3; Calb FLC: -6; T cruzi inh: 16; ALR H2O2 inh: 87*; RanGTP-Impb inh: -3.1

How did CN1CCN(/C=C(\C#N)S(=O)(=O)c2ccc(Cl)cc2)CC1 do in these assays?
Ecoli rRNA inh: 8; Beta apoptosis: -8; Calb FLC: 10; T cruzi inh: -8; FGF22 binding: inactive; MLL AF4-AF9 inh: -0.3; ALR H2O2 inh: 11; RanGTP-Impb inh: 3.2; Ecoli rRNA inh OD600: 2; Ecoli rRNA inh RFP: 2.8

How did Cc1ccc(OC(=O)c2cccc(C(=O)Oc3ccc(C)cc3)n2)cc1 do in these assays?
Beta apoptosis: -3; Calb FLC: -29; T cruzi inh: -17; ALR H2O2 inh: -4; RanGTP-Impb inh: 4.9

What do the screens show for `NC(=O)CC(NC(=O)Cc1ccc(Cl)cc1)c1ccc(NCCN2CCOCC2)c([N+](=O)[O-])c1` (stereo not drawn)?
Ecoli rRNA inh: -2; Beta apoptosis: 4; Calb FLC: 4; T cruzi inh: -7; FGF22 binding: inactive; MLL AF4-AF9 inh: 2.5; ALR H2O2 inh: 3; RanGTP-Impb inh: -4.5; Ecoli rRNA inh OD600: 6; Ecoli rRNA inh RFP: -2.4

How did CC(Sc1nc(-c2ccccc2)nc2c1COC(C)(C)C2)C(=O)N1CCOCC1 (stereo not drawn) do in these assays?
Beta apoptosis: 1; Calb FLC: 0; T cruzi inh: 7; ALR H2O2 inh: -13; RanGTP-Impb inh: -0.5

Results for COc1cc2[nH]c(=O)n(CCCCCC(=O)NCCCN3CCCC3=O)c(=O)c2cc1OC ?
Beta apoptosis: -6; Calb FLC: 0; T cruzi inh: -3; ALR H2O2 inh: -6; RanGTP-Impb inh: -0.6

What do the screens show for `COc1cccc(-c2noc(C(C)n3nc(C)c([N+](=O)[O-])c3C)n2)c1` (stereo not drawn)?
Beta apoptosis: -3; Calb FLC: 0; T cruzi inh: 13; ALR H2O2 inh: -10; RanGTP-Impb inh: 1.0

Results for O=C(COc1ccccc1)N1CCN(S(=O)(=O)c2cccs2)CC1 ?
Beta apoptosis: -2; Calb FLC: -8; T cruzi inh: -11; ALR H2O2 inh: -8; RanGTP-Impb inh: 2.3

What do the screens show for `CN(C)S(=O)(=O)c1cccc(COC(=O)CN2C(=O)NC3(CCCC3)C2=O)c1`?
Ecoli rRNA inh: 8; Beta apoptosis: -5; Calb FLC: 4; T cruzi inh: -10; FGF22 binding: inactive; MLL AF4-AF9 inh: -0.8; ALR H2O2 inh: 0; RanGTP-Impb inh: -1.1; Ecoli rRNA inh OD600: 14; Ecoli rRNA inh RFP: 0.4

Results for O=C(Cn1c(=O)c2cccn2c2ccccc21)NCCCN1CCCCC1 ?
Ecoli rRNA inh: 4; Beta apoptosis: -2; Calb FLC: 6; T cruzi inh: -11; FGF22 binding: inactive; MLL AF4-AF9 inh: 1.1; ALR H2O2 inh: -7; RanGTP-Impb inh: 3.1; Ecoli rRNA inh OD600: 17; Ecoli rRNA inh RFP: -0.2

How did CCOC(=O)CSc1nc2ccccc2n2cnnc12 do in these assays?
Beta apoptosis: -3; Calb FLC: -4; T cruzi inh: 27; RanGTP-Impb inh: 4.2

Results for Cc1cc(/C=C(\C#N)C(=O)N2CCOCC2)c(C)n1C1CCCC1 ?
Ecoli rRNA inh: -22*; Beta apoptosis: 1; Calb FLC: 3; T cruzi inh: -19; FGF22 binding: inactive; MLL AF4-AF9 inh: 1.7; ALR H2O2 inh: 7; RanGTP-Impb inh: 2.0; Ecoli rRNA inh OD600: -5.1*; Ecoli rRNA inh RFP: 2.9*

Results for O=C(C1CC1c1ccccc1)N1CCOCC1 (stereo not drawn) ?
Beta apoptosis: -3; Calb FLC: 10; T cruzi inh: 0; ALR H2O2 inh: 98*; RanGTP-Impb inh: 1.0

Results for O=C(CCC(=O)N(CC(=O)NC1CCCC1)c1ccc(F)cc1)Nc1nccs1 ?
Ecoli rRNA inh: 12; Beta apoptosis: 4; Calb FLC: -12; T cruzi inh: 2; FGF22 binding: inactive; MLL AF4-AF9 inh: -0.3; ALR H2O2 inh: -6; RanGTP-Impb inh: 1.8; Ecoli rRNA inh OD600: 15; Ecoli rRNA inh RFP: -3.1

Results for COc1ccc(CN2CCNC(=O)C2CC(=O)N(C)Cc2ccncn2)c(OC)c1 (stereo not drawn) ?
Ecoli rRNA inh: 11; Beta apoptosis: -1; Calb FLC: 2; T cruzi inh: 4; FGF22 binding: inactive; MLL AF4-AF9 inh: 0.1; ALR H2O2 inh: -2; RanGTP-Impb inh: 6.9; Ecoli rRNA inh OD600: 15; Ecoli rRNA inh RFP: -0.6

How did COc1ccccc1CNC(=O)c1ccc(NS(=O)(=O)c2c(C)noc2C)cc1 do in these assays?
Beta apoptosis: -3; Calb FLC: -2; T cruzi inh: 4; ALR H2O2 inh: 0; RanGTP-Impb inh: -2.6

What do the screens show for `CCOc1ccc(CC(=O)OCN2C(=O)c3ccccc3C2=O)cc1`?
Beta apoptosis: 2; Calb FLC: -6; T cruzi inh: 1; RanGTP-Impb inh: 3.1

Results for O=C(C[n+]1ccc(C(=O)NCCCO)cc1)c1cccc(Br)c1 ?
Ecoli rRNA inh: 0; Beta apoptosis: 1; Calb FLC: 0; T cruzi inh: -10; MLL AF4-AF9 inh: -3.6; RanGTP-Impb inh: 1.3; Ecoli rRNA inh OD600: -1; Ecoli rRNA inh RFP: 1.8

What do the screens show for `CC(=O)c1c(C)oc2ccc(OCc3ccccc3)cc12`?
Ecoli rRNA inh: -7; Beta apoptosis: 6; Calb FLC: 10; T cruzi inh: -5; FGF22 binding: inactive; MLL AF4-AF9 inh: -0.7; ALR H2O2 inh: -13; RanGTP-Impb inh: -1.4; Ecoli rRNA inh OD600: -9; Ecoli rRNA inh RFP: 8.6

How did Cc1ccc(CNC(=O)C(Cc2ccccc2)NS(=O)(=O)c2ccc(Br)s2)cc1 (stereo not drawn) do in these assays?
Ecoli rRNA inh: -10; Beta apoptosis: 3; Calb FLC: -24; T cruzi inh: 21; FGF22 binding: inactive; MLL AF4-AF9 inh: inconclusive; ALR H2O2 inh: -1; RanGTP-Impb inh: 4.6; Ecoli rRNA inh OD600: -38; Ecoli rRNA inh RFP: 27

How did CCC(C)NCc1ccc(C(=O)OC)o1 (stereo not drawn) do in these assays?
Beta apoptosis: -8; Calb FLC: -13; T cruzi inh: -5; ALR H2O2 inh: 5; RanGTP-Impb inh: -0.2

What do the screens show for `COc1ccc(-n2nc(C(=O)NCC(=O)N3CCN(c4ccccn4)CC3)c3ccccc3c2=O)cc1OC`?
Ecoli rRNA inh: 3; Calb FLC: 7; T cruzi inh: -7; MLL AF4-AF9 inh: 0.6; ALR H2O2 inh: 3; RanGTP-Impb inh: -2.7; Ecoli rRNA inh OD600: 13; Ecoli rRNA inh RFP: 0.4

How did CC1CN(S(=O)(=O)c2ccc(C(=O)N3CCc4ccccc43)cc2)CC(C)O1 (stereo not drawn) do in these assays?
Ecoli rRNA inh: 7; Beta apoptosis: -5; FGF22 binding: inactive; MLL AF4-AF9 inh: 1.8; ALR H2O2 inh: 43; Ecoli rRNA inh OD600: 6; Ecoli rRNA inh RFP: -2.2

What do the screens show for `O=C(Cn1cc(SCc2cccc(Cl)c2)c2ccccc21)N1CCOCC1`?
Beta apoptosis: -4; Calb FLC: 9; T cruzi inh: 15; ALR H2O2 inh: 43; RanGTP-Impb inh: 2.7
